# Rango dissoc inh: qHTS Assay for Inhibitors of RanGTP induced Rango (Ran-regulated importin-beta cargo) - Importin beta complex dissociation. Snurportin-1 (Homo sapiens) + GTP-binding nuclear protein Ran (Homo sapiens) + Importin …. Biochemical FRET Rango-importin beta, RanGTP-induced dissociation. Potency, µM (series often up to 46.1 µM), without a hit: at the highest dose activity change, negative = inhibition. 340,000 tested, 0.071% active. AID 540253, 2011; active means falling FRET ratio curve, often poorly fitted, with flat reads before Ran was added; inconclusive means other falling curves, or compound fluorescence or quenching; inactive means flat or rising ratio curve;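 further: potency means the concentration at half of the fitted maximal effect; % of control where 0% means no effect; nearly all actives have a fitted effect of over 45% in size; -100% = wells without RanGTP and RCC1; the record marks most hits as doubtful in a second field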
#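 Recombinant Rango FRET biosensor (EYFP–snurportin 1 IBB–cerulean CFP10) at 0.1 uM premixed with 0.25 uM importin beta in PBS, 1 mM DTT, 0.02% Tween-20, 0.1% BSA. Compound added 5 min; RanGTP-RCC1 (0.6 uM Ran, 2 mM GTP, 0.2 uM RCC1) then triggers release, read at 45 min.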
# Rango complex inh: qHTS Assay for Inhibitors of Rango (Ran-regulated importin-beta cargo) - Importin beta complex formation; Importin subunit beta-1 (Homo sapiens), Q14974; Rango CFP/YFP FRET sensor + importin beta, 45 min; Potency, µM (highest dose often 92.2 µM), for the others: at the top dose inhibition of complex formation; 340,000 tested, 0.031% active; AID 540263, 2011; active = rising FRET ratio curve, often small or poorly fitted; inconclusive = mostly compound fluorescence or quenching in the first reads; inactive = flat curves in all reads;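 further: potency means the concentration at half of the fitted maximal effect; 0% = DMSO wells and 100% = buffer wells lacking importin beta; nearly all actives have a fitted effect of over 15% in size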
# Target sequence (Q14974 whole entry, looked up): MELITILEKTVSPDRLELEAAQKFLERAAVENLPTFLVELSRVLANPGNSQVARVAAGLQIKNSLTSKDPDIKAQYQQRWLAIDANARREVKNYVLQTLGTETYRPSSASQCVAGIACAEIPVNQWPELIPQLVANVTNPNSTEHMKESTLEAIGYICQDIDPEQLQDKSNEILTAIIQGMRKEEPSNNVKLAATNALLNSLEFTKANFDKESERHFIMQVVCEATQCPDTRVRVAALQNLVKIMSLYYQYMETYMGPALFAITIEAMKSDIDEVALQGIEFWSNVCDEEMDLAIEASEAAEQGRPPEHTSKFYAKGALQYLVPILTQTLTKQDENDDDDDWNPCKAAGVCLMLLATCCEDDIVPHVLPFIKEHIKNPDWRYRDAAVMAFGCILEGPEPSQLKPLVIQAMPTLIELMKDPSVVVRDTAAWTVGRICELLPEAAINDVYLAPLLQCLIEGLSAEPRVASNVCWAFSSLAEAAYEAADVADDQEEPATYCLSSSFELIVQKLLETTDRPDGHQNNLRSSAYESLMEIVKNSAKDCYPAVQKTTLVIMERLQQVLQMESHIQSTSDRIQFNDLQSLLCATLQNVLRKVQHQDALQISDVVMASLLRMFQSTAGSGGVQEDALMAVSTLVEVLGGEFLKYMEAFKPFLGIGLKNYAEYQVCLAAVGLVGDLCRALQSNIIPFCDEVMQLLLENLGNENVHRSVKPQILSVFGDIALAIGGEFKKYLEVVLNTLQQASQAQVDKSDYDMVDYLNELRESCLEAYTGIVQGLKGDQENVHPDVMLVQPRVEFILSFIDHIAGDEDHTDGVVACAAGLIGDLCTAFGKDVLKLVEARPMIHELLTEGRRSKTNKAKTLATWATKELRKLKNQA
#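 FRET biosensor Rango (snurportin 1 IBB between N-terminal EYFP and C-terminal Cerulean), 50 nM in PBS/1 mM DTT/0.02% Tween-20/0.1% BSA, preincubated 5 min RT with compound; 0.125 microM importin beta added, 45 min RT, CFP/YFP FRET ratio read.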
# GLA inh pH 4.5: qHTS Assay for Inhibitors of Human alpha-Galactosidase at pH 4.5 | Alpha-galactosidase A (Homo sapiens), P06280 | purified enzyme, 4-MU-alpha-Gal fluorescence, pH 4.5 | activity change, negative = inhibition, % at 105 µM | 230,000 tested, under 10 active; inconclusive = small, poorly fitted or top-dose-only inhibition, or a rising curve; inactive = flat fitted curve, though single readings scatter; no compound was filed as active;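 further: 0% = full activity with enzyme and -100% = basal without enzyme; dose as in the result columns while the protocol names 77 µM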
# miR-21 FLuc: qHTS Assay for Modulators of miRNAs and/orActivators of miR-21; 340,000 tested, under 10 active; HeLa miR-21 FLuc reporter, luciferase, 48 h; AID 2288, 2010; Potency, µM (highest dose often 38.3 µM), for the others: at the highest dose reporter change, positive = more light; active = well fitted rising curve with a large enough effect; inconclusive = small, poorly fitted or top-dose-only effect; inactive = no such curve, though single readings can be large or run the other way;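 further: % of control where 0% means no effect; miR-21 action dims this reporter so a rising signal means less miR-21 action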
#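 HeLa cells stably expressing CMV-driven firefly luciferase with a downstream miR-21 binding sequence, endogenously expressing miR-21, were treated with titrations (up to about 40uM final) for 48 hours at 37 degree Celsius. Luciferase luminescence was read after lysis.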
# The depositor's hits bear a star; ? = inconclusive; nt = not tested or not shown. Not all compounds are listed. The share of hits here may be higher or lower than overall.
1	Cc1ccccc1-n1c(=O)/c(=C\c2ccco2)s/c1=C(/C#N)C(=O)Nc1ccccc1
2	CCOC(=O)c1c(C)[nH]c(C)c1S(=O)(=O)N(C)CC(=O)Nc1cc(C)ccc1OC
3	CC(OC(=O)CCSc1ccccc1)C(=O)Nc1ccc(S(N)(=O)=O)cc1 (stereo not given)
4	CC(C)N(C(=O)CSc1nc2ccccc2n1Cc1ccccc1)C(C)C
5	Cc1ccc(S(=O)(=O)N2CCCCC2C(=O)Nc2ccc(N(C)C)cc2)cc1 (stereo not given)
Assay by compound,1,2,3,4,5
Rango dissoc inh,?,26.6%,6.2%,-11.2%,2.5%
Rango complex inh,?,?,0.1%,-2.2%,-1.0%
GLA inh pH 4.5,-8.9,nt,nt,-1.8,nt
miR-21 FLuc,-1.5%,0.9%,nt,-7.3%,nt

6	CCCCOc1ccc(C(=O)NCC(=O)NCc2ccccn2)cc1
7	CCOCCCn1c(=O)c(NC(=O)c2ccc(OCC)cc2)c2n(c1=S)CCCCC2
8	COc1ccc(CCc2ccnc3ccccc23)cc1
9	CCn1nc(C)c(CN2CCC(C(=O)Nc3cccc(-c4cccc(Cl)c4)c3)CC2)c1C
10	Cc1cnc(C(=O)NC2CC(C)(C)Cc3c2cnn3-c2ccccc2)cn1 (stereo not given)
Assay by compound,6,7,8,9,10
Rango dissoc inh,4.5%,6.2%,1.8%,0.5%,-4.4%
Rango complex inh,-1.4%,-4.1%,-0.2%,0.5%,-0.1%
GLA inh pH 4.5,nt,-14.3,nt,nt,nt
miR-21 FLuc,nt,-8.1%,nt,9.0%,7.3%

11	CCN1CCCC1CNC(=O)CS(=O)(=O)Cc1nc(-c2ccccc2C)oc1C (stereo not given)
12	COc1ccccc1NC(=O)COc1ccc(Br)cc1CO
13	Cc1nc(COC(=O)c2ccc(CO)cc2)cs1
14	CCOC(=O)c1cnn(-c2nc(OC)cc(OC)n2)c1C(F)(F)F
15	O=c1[nH]c2c(cnn2-c2ccc(Cl)cc2)c(=O)n1-c1cccc(Cl)c1
Assay by compound,11,12,13,14,15
Rango dissoc inh,1.5%,9.5%,-4.5%,1.0%,-17.3%
Rango complex inh,5.3%,0.3%,-1.0%,6.7%,0.2%
GLA inh pH 4.5,12.4,5.0,1.7,-1.5,-3.1
miR-21 FLuc,-1.3%,-16.3%,-5.1%,-6.9%,-27.0%

16	CC(NC(=O)CSc1ncccc1C(=O)O)C1CC2CCC1C2 (stereo not given)
17	CC(C)(C(=O)Nc1nccs1)c1ccccc1
18	Cc1cc(C)cc(OCc2nnc(SCC(=O)c3ccccc3)o2)c1
19	Cc1cc(C)nc(SCCCNCc2ccc(Br)cc2)n1
20	Cc1nn(C)c(C)c1CCC(=O)N1CCCC(C(=O)c2cccc(OC(C)C)c2)C1 (stereo not given)
Assay by compound,16,17,18,19,20
Rango dissoc inh,8.5%,-19.2%,-3.6%,-18.7%,13.7%
Rango complex inh,-3.0%,4.6%,4.9%,-0.6%,0.1%
GLA inh pH 4.5,-13.2,3.0,-2.6,nt,nt
miR-21 FLuc,0.0%,-5.3%,-1.4%,0.4%,-7.4%

21	O=C(CN1CCN(c2ccccc2O)CC1)Nc1ccc2c(c1)CCC2
22	O=C(CSc1c[nH]c2ccccc12)NCC1CCCO1 (stereo not given)
23	CCc1ccc(NC(=O)c2ccc(F)c(S(=O)(=O)N(CC)c3ccccc3)c2)cc1
24	CN(CC(=O)Nc1ccccc1C(F)(F)F)C(=O)C1=COCCO1
25	S=C(Nc1ccccc1Cl)N1CCCC(c2ccccc2)=N1
Assay by compound,21,22,23,24,25
Rango dissoc inh,0.6%,-9.6%,8.2%,-0.6%,7.5%
Rango complex inh,2.2%,-1.4%,-0.4%,5.8%,0.0%
GLA inh pH 4.5,3.1,0.0,4.8,nt,-10.2
miR-21 FLuc,2.0%,-0.7%,-0.4%,nt,-13.0%

26	N#Cc1cnc(Nc2ccc(F)cc2)nc1N
27	COc1ccc(S(=O)(=O)N2CCN(Cc3cc(OC)c(OC)c(OC)c3)CC2)cc1
28	COC(=O)C(C)Oc1ccc(Cl)c(CN2OCC(C)(C)C2=O)c1 (stereo not given)
29	CS(=O)(=O)Nc1cccc(C2=NN(C(=O)c3ccco3)C(c3ccco3)C2)c1 (stereo not given)
30	O=C(Nc1cccc(Cl)c1)C1CCCCC1
Assay by compound,26,27,28,29,30
Rango dissoc inh,1.5%,-2.4%,2.7%,0.4%,0.1%
Rango complex inh,0.2%,4.4%,-1.7%,-2.8%,-0.2%
GLA inh pH 4.5,-0.3,nt,nt,nt,nt
miR-21 FLuc,-36.9%,16.8%,nt,8.4%,nt

31	COCc1cc(=O)[nH]c(/N=C(\N)Nc2ccc(Cl)c(Cl)c2)n1
32	Cc1cc(N/C=C(\C#N)S(=O)(=O)c2ccccc2Cl)nc(C)n1
33	Cc1cc(C(=O)NNc2ccc(F)cc2F)no1
34	CNC(=O)C(=O)NCC1OCCCN1S(=O)(=O)c1ccc(F)cc1C (stereo not given)
35	Cc1cc(C(=O)NNC(=O)c2cccc(N(C)C)c2)c(C)o1
Assay by compound,31,32,33,34,35
Rango dissoc inh,9.5%,-13.6%,5.2%,1.0%,-10.7%
Rango complex inh,-1.9%,-1.1%,?,1.0%,-1.6%
GLA inh pH 4.5,-3.0,-2.5,1.6,nt,nt
miR-21 FLuc,-4.0%,-4.2%,17.0%,-3.4%,-10.7%

# As a short view, part of the list above.
1	Cc1ccccc1-n1c(=O)/c(=C\c2ccco2)s/c1=C(/C#N)C(=O)Nc1ccccc1
2	CCOC(=O)c1c(C)[nH]c(C)c1S(=O)(=O)N(C)CC(=O)Nc1cc(C)ccc1OC
3	CC(OC(=O)CCSc1ccccc1)C(=O)Nc1ccc(S(N)(=O)=O)cc1 (stereo not given)
4	CC(C)N(C(=O)CSc1nc2ccccc2n1Cc1ccccc1)C(C)C
5	Cc1ccc(S(=O)(=O)N2CCCCC2C(=O)Nc2ccc(N(C)C)cc2)cc1 (stereo not given)
6	CCCCOc1ccc(C(=O)NCC(=O)NCc2ccccn2)cc1
7	CCOCCCn1c(=O)c(NC(=O)c2ccc(OCC)cc2)c2n(c1=S)CCCCC2
Assay by compound,1,2,3,4,5,6,7
Rango dissoc inh,?,26.6%,6.2%,-11.2%,2.5%,4.5%,6.2%
Rango complex inh,?,?,0.1%,-2.2%,-1.0%,-1.4%,-4.1%
GLA inh pH 4.5,-8.9,nt,nt,-1.8,nt,nt,-14.3
miR-21 FLuc,-1.5%,0.9%,nt,-7.3%,nt,nt,-8.1%

8	COc1ccc(CCc2ccnc3ccccc23)cc1
9	CCn1nc(C)c(CN2CCC(C(=O)Nc3cccc(-c4cccc(Cl)c4)c3)CC2)c1C
10	Cc1cnc(C(=O)NC2CC(C)(C)Cc3c2cnn3-c2ccccc2)cn1 (stereo not given)
11	CCN1CCCC1CNC(=O)CS(=O)(=O)Cc1nc(-c2ccccc2C)oc1C (stereo not given)
12	COc1ccccc1NC(=O)COc1ccc(Br)cc1CO
13	Cc1nc(COC(=O)c2ccc(CO)cc2)cs1
14	CCOC(=O)c1cnn(-c2nc(OC)cc(OC)n2)c1C(F)(F)F
Assay by compound,8,9,10,11,12,13,14
Rango dissoc inh,1.8%,0.5%,-4.4%,1.5%,9.5%,-4.5%,1.0%
Rango complex inh,-0.2%,0.5%,-0.1%,5.3%,0.3%,-1.0%,6.7%
GLA inh pH 4.5,nt,nt,nt,12.4,5.0,1.7,-1.5
miR-21 FLuc,nt,9.0%,7.3%,-1.3%,-16.3%,-5.1%,-6.9%

15	O=c1[nH]c2c(cnn2-c2ccc(Cl)cc2)c(=O)n1-c1cccc(Cl)c1
16	CC(NC(=O)CSc1ncccc1C(=O)O)C1CC2CCC1C2 (stereo not given)
17	CC(C)(C(=O)Nc1nccs1)c1ccccc1
18	Cc1cc(C)cc(OCc2nnc(SCC(=O)c3ccccc3)o2)c1
19	Cc1cc(C)nc(SCCCNCc2ccc(Br)cc2)n1
Assay by compound,15,16,17,18,19
Rango dissoc inh,-17.3%,8.5%,-19.2%,-3.6%,-18.7%
Rango complex inh,0.2%,-3.0%,4.6%,4.9%,-0.6%
GLA inh pH 4.5,-3.1,-13.2,3.0,-2.6,nt
miR-21 FLuc,-27.0%,0.0%,-5.3%,-1.4%,0.4%

# (listing goes on)
36	CS(=O)(=O)c1ccc(-c2nnn(CC(N)=O)n2)cc1
37	S=C(NCc1ccncc1)Nc1ccc(Cl)cc1Cl
38	COc1cc(/C=C2\SC(=Nc3ccccc3)N(CCc3c[nH]c4ccccc34)C2=O)ccc1OC(C)C(=O)O (stereo not given)
39	COc1cccc2[nH]c3c(N4CCCC(C)C4)ncnc3c12 (stereo not given)
40	O=C(O)/C=C\C(=O)Nc1ccccc1F
Assay by compound,36,37,38,39,40
Rango dissoc inh,?,1.9%,8.9%,-4.1%,-7.5%
Rango complex inh,-2.9%,2.7%,-4.3%,-1.3%,0.7%
GLA inh pH 4.5,-3.9,5.8,-9.8,4.9,4.9
miR-21 FLuc,-0.6%,8.5%,-0.8%,-24.9%,-5.9%

41	Cc1csc(SCCN2C(=O)c3ccccc3C2=O)n1
42	Cc1c2c(nc3nc4ccccc4n13)CCCC2=O
43	CN(C)C(=O)c1ccc(NC(=O)CSc2nc3ccccc3[nH]2)cc1
44	Cn1c(SCc2ccc(C#N)cc2)nnc1-c1ccncc1
45	CCOc1ccc2c(c1)c1nnc(SCC(=O)N3CCC(C)CC3)nc1n2C
Assay by compound,41,42,43,44,45
Rango dissoc inh,9.0%,nt,0.7%,1.6%,-8.9%
Rango complex inh,1.4%,nt,0.4%,2.1%,0.1%
GLA inh pH 4.5,3.7,-1.2,1.9,nt,-2.0
miR-21 FLuc,-50.6%,1.4%,-1.1%,-0.7%,-4.6%

46	Cn1c(=O)[nH]c(=O)c2c1nc(Br)n2CC(O)COc1ccccc1 (stereo not given)
47	O=C(/C=C/c1ccc(F)cc1)N1CCc2ccccc2C1
48	CCCCOc1ccccc1C1NC(=O)NC(C)=C1C(=O)OCCOC (stereo not given)
49	CCS(=O)(=O)N1Cc2ccccc2CC1C(=O)N1CCN(c2ccccc2)CC1 (stereo not given)
50	N=c1oc2cc(O)ccc2cc1C(=O)Nc1ccc(F)cc1
51	CCOCc1nnc(NC(=O)CS(=O)(=O)c2ccc(C)cc2)s1
52	COc1ccc(Br)cc1CNC(=O)CCCc1cn(C)c2ccccc12
Assay by compound,46,47,48,49,50,51,52
Rango dissoc inh,1.3%,-8.9%,13.7%,-9.6%,?,-1.9%,0.8%
Rango complex inh,?,-6.1%,-4.5%,-3.5%,?,0.7%,-0.9%
GLA inh pH 4.5,-3.1,nt,nt,-23.8,nt,nt,-5.9
miR-21 FLuc,0.5%,nt,nt,-4.6%,18.1%,0.3%,-13.8%

# Screening results as filed in PubChem BioAssay.
